Screening data: PubChem BioAssay, several laboratories
RanGTP-Imp inh = disruptors of Ran-importin-beta complex formation – biochemical, FRET, CFP-Ran, YFP-importin-beta, homogeneous, primary screen; cell-free CFP-Ran/YFP-importin-beta FRET ratio; inhibition, % (test concentration not listed); 300,000 tested, 1.1% active; AID 2216;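 active means most replicates above 15%; inconclusive means exactly half above 15%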;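 further: 0% = DMSO wells and 100% = Ran loaded with GDP instead of GTP; wells of about 40 µL received 100 nL stock; the first replicate is given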
UCH37 DUB inh = human UCH37 deubiquitinating enzyme inhibition; purified proteasome/UCH37, Ub-AMC cleavage fluorescence; inhibition, % (no concentration beside the values); 330,000 tested, 0.33% active;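 active means mean of two replicates above 20%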;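 further: 0% = compound-free wells with enzyme and 100% = wells lacking proteasome; stock transfer was 100 nL into about 20 µL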
Target sequence (Q9Y5K5 whole entry, looked up): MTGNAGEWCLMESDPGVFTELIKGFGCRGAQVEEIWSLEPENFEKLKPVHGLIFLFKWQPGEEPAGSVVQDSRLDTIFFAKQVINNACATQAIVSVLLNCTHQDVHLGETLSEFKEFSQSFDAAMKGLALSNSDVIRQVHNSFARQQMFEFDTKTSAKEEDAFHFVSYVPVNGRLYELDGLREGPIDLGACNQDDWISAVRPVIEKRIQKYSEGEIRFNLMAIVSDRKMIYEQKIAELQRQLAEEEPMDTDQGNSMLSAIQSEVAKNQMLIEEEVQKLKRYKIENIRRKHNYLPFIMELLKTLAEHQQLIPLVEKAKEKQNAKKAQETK
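system = Proteasome-associated human UCH37 deubiquitinase | amount = 0.15 nM proteasome as dispensed | medium = pH 7.4 Tris-HCl (50 mM) with ovalbumin, ATP-MgCl2, DTT | incubation = 30 min preincubation with enzyme, 25 min cleavage at room temperature | detection = AMC fluorescence 355/460 nm | read-out basis = percent inhibition | controls = no-proteasome and no-compound wells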
FGF22 binding = binders of recombinant human FGF22 by thermal shift; SYPRO orange fluorescence; percent of sucrose octasulfate shift, DMSO zero; calls only at 9.99 µM; Q9HCT0; 340,000 tested, 1.5% active;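 active means melting point raised past a set limit in the mean and every replicate; inconclusive means no clear call; three in four hits are not shown here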
Target sequence (Q9HCT0 whole entry, looked up): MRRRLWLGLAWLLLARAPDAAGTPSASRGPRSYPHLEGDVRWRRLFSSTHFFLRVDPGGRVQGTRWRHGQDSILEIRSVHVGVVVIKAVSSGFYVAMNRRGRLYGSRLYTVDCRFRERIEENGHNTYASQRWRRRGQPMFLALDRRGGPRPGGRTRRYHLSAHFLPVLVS
Vif A3G = inhibitors of Vif binding to APOBEC3G peptide, primary screen, biochemical, TR-FRET, GST-Vif 1-94, biotin-A3G peptide, dose response retest (AID 1117319). TR-FRET GST-Vif / biotin-A3G peptide binding; higher % means a stronger effect; test concentration not given here; strong numbers were not always called active. one-dose inhibition, %; IC50 in µM for titrated hits. 260,000 tested, 0.57% active;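 active means above the screen mean plus three standard deviations and confirmed in dose response; inconclusive means results disagree or hit not tested in dose response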;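 further: Vif residues 1-94 fused to GST binding biotinylated APOBEC3G peptide 110-148; 0% = full assay without inhibitor and 100% = GST in place of GST-Vif; retest series ran down from 100 µM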
HNF4A DNA FP = change in binding of human HNF4 alpha to DNA; P41235; HNF4a-FITC DNA binding, fluorescence polarization, 1 h; activity change, % at 10 µM; 360,000 tested, 0.3% active; in the data active means activity change above about 30%, passing the limit was not always enough;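 further: controls were the assay level and a saturating level of protein; the project sought stronger binding though the title names inhibitors; some compounds called inactive have numbers as strong as hits; positive values seem to mean higher polarization but the record does not say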
Target sequence (P41235 whole entry, looked up): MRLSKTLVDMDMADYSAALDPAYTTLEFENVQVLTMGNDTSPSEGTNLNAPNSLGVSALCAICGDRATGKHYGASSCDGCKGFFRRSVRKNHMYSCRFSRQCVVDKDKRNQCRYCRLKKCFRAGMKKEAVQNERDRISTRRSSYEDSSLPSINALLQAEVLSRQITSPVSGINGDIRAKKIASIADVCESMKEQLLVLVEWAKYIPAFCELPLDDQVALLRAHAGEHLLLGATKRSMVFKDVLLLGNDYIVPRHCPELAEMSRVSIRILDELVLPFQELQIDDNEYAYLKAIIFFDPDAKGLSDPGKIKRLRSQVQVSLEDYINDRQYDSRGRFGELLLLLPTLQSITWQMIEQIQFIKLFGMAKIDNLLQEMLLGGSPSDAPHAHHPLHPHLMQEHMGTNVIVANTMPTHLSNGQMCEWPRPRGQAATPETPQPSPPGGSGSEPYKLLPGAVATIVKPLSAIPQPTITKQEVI
E coli growth = E. coli growth inhibition. Escherichia coli growth, OD600, 23 h; hits give low values. OD600 absorbance (no concentration beside the values). 330,000 tested, 0.21% active;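 active means OD600 absorbance below the run mean of sample wells minus 3.6 SD, in any replicate, cut at about 0.56 in these data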;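 further: stock transfer was 300 nL into about 60 µL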
AF4-AF9 inh = MLL-AF4/AF9 protein interaction inhibition | P42568 | inhibition, % at 10 µM | AlphaScreen, biotin-AF4 peptide binding to FLAG-AF9 | 350,000 tested, 0.47% active;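 active means every replicate reaching a set inhibition limit, whatever the replicate mean, cut at about 25% in these data; inconclusive means mean inhibition reaches that limit but some replicates miss it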;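 further: 0% = plate neutral control median and 100% = total signal loss; the record names both 10 and 1 µM as test concentration; the first replicate is given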
An asterisk follows results filed as active; i = inactive; ? = inconclusive; / = not tested or not shown. A portion of the library; the hit share may differ from the screen's.

Sequence of screens – RanGTP-Imp inh	UCH37 DUB inh	FGF22 binding	Vif A3G	HNF4A DNA FP	E coli growth	AF4-AF9 inh
O=[N+]([O-])c1ccc(Cl)c(/C=N/n2c(-c3ccncc3)n[nH]c2=S)c1
→ 6.5	/	i	8.5%	1.3	/	0.8
COc1ccc(N2CCN(S(=O)(=O)c3c(C)[nH]c(C)c3C(=O)N3CCCCC3)CC2)cc1
→ 2.0	1.6	i	2.6%	1.4	0.701	1.7
COc1ccc(CN(Cc2cccnc2)S(=O)(=O)c2ccc(-n3cnnn3)c(OC)c2)cc1
→ 0.8	-1.6	i	/	3.4	0.639	-1.0
Cc1ccc(CNC(=O)c2cccc3c2C(=O)c2ccc(N4CCOCC4)cc2S3(=O)=O)cc1
→ /	-17.0	i	/	29.0	0.789	1.6
COC(=O)c1nn(-c2ccccc2)c(Sc2ccc(Cl)cc2)c1/C=N/O
→ 0.7	/	/	?	-2.6	/	/
CCN(CC)CCCNC(=O)Cn1ncn2cccc2c1=O
→ ?	-0.7	/	-3.8%	-1.4	0.716	/
O=C(O)c1cc(-c2ccccc2)nc2nc(N3CCCCC3)sc12
→ 7.1	i	/	8.4%	/	0.686	-15.5
CCC1(C)Cc2c(sc3nc(SC)[nH]c(=O)c23)CO1 (centres undefined)
→ 1.2	1.9	/	-8.1%	4.9	0.682	8.2
N=C1SCC(=O)N1c1ncc(Cc2ccccc2Cl)s1
→ 3.9	2.0	i	-7.8%	2.0	0.699	?
O=C(O)CCC(=O)Nc1nc2nccc(-c3ccccc3)n2n1
→ ?	-100.4	i	-2.0%	-2.6	0.657	1.1
Cc1ccc(S(=O)(=O)Nc2ccccc2C(N)=O)cc1
→ 3.2	-34.3	/	-0.8%	6.2	0.694	/
O=C(N/N=C/c1ccc(Br)cc1)c1cc[n+](Cc2ccccc2)cc1
→ -0.9	/	i	/	-1.3	/	2.8
CCCc1nc2c3ccccc3ccn2c1Cc1ccccc1C(F)(F)F
→ /	/	i	/	1.4	/	-1.4
COc1ccc(N2CCN(C(=O)c3ccccc3Br)CC2)c([N+](=O)[O-])c1
→ 4.1	7.0	i	-0.7%	-6.8	0.694	9.4
CC(C)Cn1c(N)c(C(=O)COC(=O)c2ccncc2)c(=O)n(C)c1=O
→ 1.8	1.0	/	11.5%	-11.4	0.74	/
COC(=O)[C@H](Cc1ccccc1)NC(=O)NCCc1ccc(OC)cc1
→ -5.1	6.1	i	0.0%	-0.9	0.688	-0.2
CCCSc1nc2c(c(=O)[nH]c(=O)n2C)n1C
→ -1.0	1.6	/	3.9%	-4.0	0.686	/
CCCCCCn1nc(C(=O)OCC(=O)NC2CCS(=O)(=O)C2)c2ccccc2c1=O (centres undefined)
→ -5.1	3.4	i	27.1%	-1.4	0.695	1.8
O=C(c1cccnc1)N1CCN(C(=O)c2ccccc2F)CC1
→ 5.3	1.4	/	14.4%	0.6	0.726	/
Cc1ccc(S(=O)(=O)/C(C#N)=C/c2c(N3CCOCC3)nc3c(C)cccn3c2=O)cc1
→ 3.7	4.2	i	7.8%	3.1	0.643	9.4
O=C(CSc1nc2[nH]ncc2c(=O)[nH]1)Nc1cccc(Cl)c1
→ 6.5	7.8	i	-3.7%	2.1	0.64	-0.2
COC(=O)c1cccc(NC(=O)c2ccccc2)c1
→ -1.8	3.8	i	/	-13.3	0.66	-7.4
COc1ccc(/C=C/C(=O)Nc2ccccc2C(F)(F)F)cc1OC
→ 7.0	-4.7	i	-0.3%	4.6	0.665	-0.6
CCOC(=O)N1CCN(Cc2nnc(-c3cccc(Br)c3)o2)CC1
→ -4.8	1.2	i	-4.7%	6.3	0.649	-3.1
C=CCNC(N)=S
→ -0.6	0.0	i	/	-3.7	0.705	-6.1
O=C(Cc1cc(=O)oc2cc(O)ccc12)NC(Cc1ccc(Cl)cc1)C(=O)O (centres undefined)
→ 50.4*	i	i	0.5%	5.0	0.718	-2.6
COc1cc(/C=C(\NC(C)=O)C(=O)O)cc(OC)c1OC
→ 2.7	4.6	i	?	5.4	0.628	-1.0
CCN(CC)S(=O)(=O)c1ccc(N2CCOCC2)c(NC(=O)C(C)(C)C)c1
→ 2.6	1.3	i	/	-1.1	0.691	-5.7
O=C(O)CSCC(=O)N1CCN(c2ccnc3cc(Cl)ccc23)CC1
→ 1.1	5.5	/	8.7%	-2.7	0.653	/
COc1cccc(C(NC(C)=O)c2nc(-c3ccc4c(c3)OCO4)cs2)c1 (centres undefined)
→ /	/	i	/	1.6	/	-2.7
OCC[C@H]1C[C@@H](O)[C@H](O)[C@@]2(CCc3ccccc3O2)O1
→ /	0.4	i	/	-1.2	/	0.0
Cn1nnnc1SCc1ccc(C(=O)Nc2ccccc2F)cc1
→ -1.2	3.3	/	1.0%	-1.0	0.686	/
O=C1CCSc2cccc3cccc(c23)N1
→ 6.9	2.1	i	-1.5%	-1.0	0.643	-29.7
Cc1cc(C)c(C#N)c(Sc2ccccc2N)n1
→ 2.5	4.0	i	-4.2%	1.2	0.67	-5.0
CCCC(=O)NCn1nnc(-c2ccc(Cl)cc2)n1
→ 2.8	4.0	i	5.0%	-3.6	0.71	-1.1
Cn1c(SCC(=O)OCC(=O)c2ccccc2)nnc1-c1cccs1
→ 2.9	1.0	/	4.0%	-0.9	0.71	/
C=C(Br)Cn1c(CCC)nc2ccccc21
→ 0.4	-4.1	/	0.2%	-2.9	0.742	/
O=C(Nc1nccs1)c1ccc(-c2ccc(Cl)cc2Cl)o1
→ 1.4	-72.7	i	11.0%	0.8	0.64	-7.1
O=C(O)COc1ccc(C(=O)Cc2ccc3c(c2)OCCCO3)c(O)c1
→ -1.3	4.1	i	14.2%	0.4	0.679	-0.1
C=CCOC(=O)C1=C(C)N=C2SCCC(=O)N2C1c1ccc(OC(=O)c2ccco2)cc1 (centres undefined)
→ -2.1	2.1	/	-4.1%	4.9	0.761	/
O=C(CSc1nc2ccccc2[nH]1)NC(=O)NCc1ccco1
→ -0.6	3.9	/	15.5%	0.7	0.681	/
COC(=O)c1ccc(Cn2cc([N+](=O)[O-])cn2)cc1
→ -0.7	2.1	i	5.9%	-0.6	0.64	1.2
O=C(c1ccc(Br)s1)N1CCCC1
→ -0.2	4.4	/	4.8%	2.0	0.694	/
Nc1nnc(SCc2cccc(C(F)(F)F)c2)s1
→ 0.9	1.8	/	-2.3%	1.2	0.678	/
Cc1cc(Cl)ccc1OCC(=O)Nc1ccccc1N1CCOCC1
→ 2.0	-0.1	/	?	1.0	0.662	/
O=C(C[n+]1cc(-c2ccccc2)n2c1CCC2)OCc1ccccc1
→ 4.3	3.2	/	/	0.5	0.704	/
Cc1nc2ccccc2nc1CC(O)(c1ccccc1)c1ccccc1
→ /	/	i	0.2%	3.7	/	-1.0
COc1ccc(CCN2C(=O)C3C4CC(C5C(C(=O)NN)=NOC45)C3C2=O)cc1OC (centres undefined)
→ 1.2	0.2	/	-2.0%	-0.2	0.749	/
Cc1noc(C)c1C(=O)OCC(=O)Nc1ccc(N2CCOCC2)cc1
→ /	1.9	i	/	5.4	0.627	2.0
COC(=O)c1scc(C)c1NC(=O)c1ccccc1F
→ 1.3	-0.2	i	7.4%	-2.5	0.666	2.3
CS(=O)c1ccccc1-c1nc(-c2ccc(Cl)cc2)no1 (centres undefined)
→ 0.9	3.3	i	12.1%	1.5	0.689	-0.7
O=C1N=C(N2CCN(c3cccc4ccccc34)CC2)S/C1=C/c1cccs1
→ -1.5	8.4	/	0.1%	-4.6	0.751	/
CCC1(c2ccccc2)NC(=O)N(CC(=O)N(C)CC(=O)Nc2cccc(F)c2)C1=O (centres undefined)
→ -0.5	2.8	i	/	1.2	0.724	-1.3
CCCCNCc1cc2ccccc2o1
→ -4.7	1.5	i	-1.2%	4.1	0.704	1.9
COc1cc(C(C)=O)ccc1COc1ccc(C(=O)OCC(=O)NC2CCS(=O)(=O)C2)cc1OC (centres undefined)
→ -0.3	5.0	/	/	-0.6	0.725	/
Cc1ccc(S(=O)(=O)N2CC3(C)CN(S(=O)(=O)c4ccc(C)cc4)CC(C)(C2)C3=O)cc1
→ 2.6	2.4	/	3.0%	-1.7	0.663	/
CCOC(=O)Nc1ccc(S(=O)(=O)N2CCOCC2)cc1
→ 0.2	4.0	/	-7.1%	-1.6	0.693	/
Nc1c(Cl)cc(N=Nc2ccccc2)cc1Cl
→ /	1.3	i	-8.1%	-1.6	0.722	10.7
COc1ccc(S(=O)(=O)NCc2c(-c3ccccc3)noc2C)c(OC)c1
→ 2.5	-3.3	/	/	2.3	0.665	-1.2
CCC(C(=O)NNC(=O)c1cnccn1)c1ccccc1 (centres undefined)
→ 5.7	2.2	i	18.6%	-1.6	0.628	0.9

Continuation:
Sequence of screens – RanGTP-Imp inh	UCH37 DUB inh	FGF22 binding	Vif A3G	HNF4A DNA FP	E coli growth	AF4-AF9 inh
O=C(Cc1cccs1)N1CCN=C1SCc1ccc(F)cc1
→ 3.6	-1.2	/	-3.3%	0.8	0.674	-2.6
O=C(CCSc1ccccc1Cl)Nc1cccc([N+](=O)[O-])c1
→ 0.6	3.7	i	10.1%	-5.8	0.661	3.3
CC(Sc1nc(N)cc(=O)[nH]1)C(=O)NCC(=O)Nc1ccc(F)c(F)c1F (centres undefined)
→ /	2.0	i	/	-1.4	0.703	0.9
CC12CCC(C(=O)OC3CCCCC3)(OC1=O)C2(C)C (centres undefined)
→ -0.6	-2.6	i	-6.3%	-0.3	0.702	1.2
COc1ccc(C(=O)NCCSCc2ccccc2)cc1OC
→ -4.0	-0.2	i	-8.3%	4.0	0.683	1.6
CN(C)CCCC1Sc2ccccc2Sc2ccccc21 (centres undefined)
→ 3.4	5.7	i	/	3.5	0.641	15.2
COc1ccc(CC(=O)NNS(=O)(=O)c2ccc(F)cc2)cc1OC
→ 9.3	1.0	i	-1.9%	6.1	0.636	-0.9
CC(C)S(=O)(=O)N1CCCC(C(=O)c2cccc(Cl)c2)C1 (centres undefined)
→ -2.7	0.2	i	9.0%	1.1	0.644	0.3
CNC1(C(N)=O)CCNCC1
→ -0.5	/	i	-5.4%	2.5	/	-3.2
CC(=O)Nc1ccc(NC(=O)CC2Nc3cccc4cccc(c34)NC2=O)cc1 (centres undefined)
→ 5.3	4.2	/	18.0%	1.8	0.697	/
Cc1cc2c(cc1S(=O)(=O)CCC(=O)Nc1cccc(C(F)(F)F)c1)OCC(=O)N2
→ 4.9	0.6	i	/	2.4	0.694	0.6
NC(N)=NS(=O)(=O)c1ccc(NC(=S)NC(=O)/C=C/c2cccs2)cc1
→ -1.9	2.7	i	1.4%	-3.5	0.693	-0.1
O=C(NCCc1ccc(Cl)cc1)c1ccc(OCC2CCCO2)cc1 (centres undefined)
→ -0.3	-2.4	i	/	3.6	0.679	-7.0
O=C(NCc1ccccc1F)C1CCCN1C(=O)Nc1cccc(F)c1 (centres undefined)
→ 0.0	-0.2	i	29.0%	0.8	0.661	0.6
Cc1ccc(-c2nnn(CC(=O)N3CCN(c4nc5ccccc5s4)CC3)n2)cc1
→ -1.4	2.0	/	1.0%	-2.3	0.677	/
CC=Cc1cc(OC)c2c(c1)C(C)C(c1ccc(O)c(OC)c1)O2 (centres undefined)
→ /	1.0	i	-3.8%	0.7	0.656	17.5
O=C(CCS(=O)(=O)c1cccc2nsnc12)NC1CCCCCC1
→ 4.6	2.5	/	-7.6%	0.5	0.75	/

One compound at a time (already shown). Screens in order: RanGTP-Imp inh	UCH37 DUB inh	FGF22 binding	Vif A3G	HNF4A DNA FP	E coli growth	AF4-AF9 inh
Results for CC(Sc1nc(N)cc(=O)[nH]1)C(=O)NCC(=O)Nc1ccc(F)c(F)c1F (centres undefined) → /	2.0	i	/	-1.4	0.703	0.9
Results for NC(N)=NS(=O)(=O)c1ccc(NC(=S)NC(=O)/C=C/c2cccs2)cc1 → -1.9	2.7	i	1.4%	-3.5	0.693	-0.1
